Source: PubChem
CFTR F508del = compounds raising F508del-CFTR protein level – cell-based, HeLa F508del-CFTR, immunofluorescence, viability, primary screen (AID 1224863). HeLa F508del-CFTR, immunofluorescence total CFTR, 24 h; by the record results were divided by relative cell number; some inactives read as strong as hits. calls, or highest fold increase where a dose series was run. 0.1% of 10,000 active; in the data nearly all actives have a first-pass fold increase above 1.5; a few of its hits are not listed in these tables;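 note: total CFTR protein by anti-CFTR immunofluorescence in fixed cells; first pass at 25 µM or 10 µg/mL by library and series up to twice that; 1 = untreated cells; first-pass hits also needed half or more of the cells alive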
CFTR F508del fold 25 µM = also measured in CFTR F508del; calls as there; fold increase; measured here: primary screen single dose 25 uM; library dosed in µM
CFTR F508del fold 10 ug/mL = further read-out of CFTR F508del, marked with its call; fold increase; measured here: primary screen 10 ug/mL
CFTR F508del viability 25 µM = further read-out of CFTR F508del, marked with its call; viability, %; measured here: primary viability 25 uM; library dosed in µM;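 0% = killed and 100% = untreated cells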
CFTR F508del viability 10 ug/mL = further read-out of CFTR F508del, marked with its call; viability, %; measured here: primary viability 10 ug/mL;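 0% = killed and 100% = untreated cells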
An asterisk follows results filed as active; i = inactive; . = not tested or not shown; & = joins results of further samples. An excerpt; rates above refer to the full screens.

SMILES | CFTR F508del | CFTR F508del fold 10 ug/mL | CFTR F508del viability 10 ug/mL | others
Cc1occc1-c1nnc(SCc2cc(-c3ccco3)on2)n1C | i | 0.95 | 98
CC1CC(C)CN(Cc2nc(-c3cc(Br)cs3)no2)C1 (centres undefined) | i | 0.98 | 71
CCOC(=O)Nc1ccc2c(COC(=O)c3oc4ccc(Br)cc4c3C)cc(=O)oc2c1 | i | 1.1 | 98
CN(C)CC/C=C1/c2ccccc2COc2ccccc21 | i | . | . | CFTR F508del fold 25 µM=1.1;CFTR F508del viability 25 µM=93
CCC(C)(C)NS(=O)(=O)c1ccc(S(=O)(=O)N2CCCC2)cc1 | i | 0.99 | 95
COc1ccc(-n2nnnc2SCc2cn3ccccc3n2)cc1 | i | 1 | 103
O=C(COc1ccc(Cl)cc1Br)N1CCNC1=O | i | 0.93 | 83
FC(F)(F)c1cnc(NC2CC2)c(Cl)c1 | i | 0.96 | 89
CC(=O)OCC(=O)[C@@]1(O)CCC2C3CCC4=CC(=O)CC[C@]4(C)C3[C@@H](O)C[C@@]21C (some centres undefined) | i | . | . | CFTR F508del fold 25 µM=1.1;CFTR F508del viability 25 µM=83
O=C(OC1CCOC1=O)c1ccc([N+](=O)[O-])cc1Cl (centres undefined) | i | 0.99 | 100
COc1cccc(C(=O)COC(=O)C2=Cc3cccc(O)c3OC2)c1 | i | 0.89 | 98
COc1ccc(C2C3=C(CC(C)(C)CC3=O)NC3=C2C(=O)CC(C)(C)C3)cc1 | i | 1 | 83
Cc1cc2oc(=O)cc(COC(=O)c3ccc(N4CCCC4)c([N+](=O)[O-])c3)c2cc1C(C)C | i | 1.1 | 113
CC(c1nc(Cc2ccccc2)no1)N1CCN(c2ccc([N+](=O)[O-])cn2)CC1 (centres undefined) | i | 0.89 | 92
O=c1[nH]c(CSc2nc3ccc([N+](=O)[O-])cc3s2)nc2ccsc12 | i | 0.93 | 96
O=C(OCC(=O)N1CCc2sccc2C1)c1ccc(Br)o1 | i | 0.98 | 103
COc1ccc(CCCN(C)S(=O)(=O)c2c(C)noc2C)cc1OC | i | 1.1 | 95
Fc1ccc(-c2[nH]ncc2CNCC(C2CCOC2)N2CCOCC2)cc1 (centres undefined) | i | 0.91 | 95
O=C(NCCCN1C(=O)NC2(CCCC2)C1=O)N1CCc2ccccc2C1 | i | 0.95 | 96
C=CCSCC1Nc2cc(Cl)c(S(N)(=O)=O)cc2S(=O)(=O)N1 (centres undefined) | i | . | . | CFTR F508del fold 25 µM=1.1;CFTR F508del viability 25 µM=86

Taken from above for reference:
SMILES | CFTR F508del | CFTR F508del fold 10 ug/mL | CFTR F508del viability 10 ug/mL | others
O=C(COc1ccc(Cl)cc1Br)N1CCNC1=O | i | 0.93 | 83
FC(F)(F)c1cnc(NC2CC2)c(Cl)c1 | i | 0.96 | 89

More entries:
SMILES | CFTR F508del | CFTR F508del fold 10 ug/mL | CFTR F508del viability 10 ug/mL | others
O=C(COC(=O)C1(c2ccc(F)cc2)CCCC1)N1c2ccccc2NC(=O)C12CCCC2 | i | 0.83 | 71
CCOC(=O)C1CCCCN1S(=O)(=O)N1CCN(S(=O)(=O)C2CCS(=O)(=O)C2)CC1 (centres undefined) | i | 1 | 88
O=C(NCc1ccc(S(=O)(=O)N2CCOCC2)s1)C1CC1 | i | 1.1 | 108
CC1CCCCC1NC(=O)CN1C(=O)CS/C1=C\C(=O)C(C)(C)C (centres undefined) | i | 0.9 | 91
CCOc1ccc(NC(=O)CC(C)O)cc1 (centres undefined) | i | . | . | CFTR F508del fold 25 µM=1;CFTR F508del viability 25 µM=76
CCCN(CCC)S(=O)(=O)N1CC=C(c2c(OC)cc(OC)cc2OC)CC1 | i | 0.86 | 75
Fc1ccccc1-n1cnn(CN2CCOCC2)c1=S | i | 0.91 | 96
c1coc(CNc2nc(CN3CCOCC3)nc3sc4c(c23)CCCC4)c1 | i | 1 | 86
CC1CCCN(S(=O)(=O)N2CCc3ccccc3C2)C1 (centres undefined) | i | 0.98 | 100
C=CCOC(=O)c1[nH]c(C)c(C(=O)OC)c1C | i | 0.87 | 86
Clc1ccc(-c2csc(NC3CC3)n2)cc1Cl | i | 0.91 | 99
O=S(=O)(c1ccc(N2CCN(S(=O)(=O)c3c(F)cccc3F)CC2)nc1)N1CCCC1 | i | 0.99 | 93
CCOC(=O)c1cn[nH]c1S(=O)(=O)N1CCCCCCC1 | i | 1 | 86
O=C(OCc1ccc(Cl)cc1)C1=CN2CCS(=O)(=O)N=C2C=C1 | i | 1 | 98
O=[N+]([O-])c1cc(S(=O)(=O)Nc2cc(Cl)ccc2F)ccc1Cl | i | 0.96 | 85
NC[C@H]1O[C@H](OC2[C@@H](N)C[C@@H](N)[C@H](O[C@H]3O[C@H](CO)[C@@H](O)[C@H](N)[C@H]3O)[C@H]2O)[C@H](O)[C@@H](O)[C@@H]1O (some centres undefined) | i | . | . | CFTR F508del fold 25 µM=1;CFTR F508del viability 25 µM=88
O=[N+]([O-])c1c(NC2CCN(Cc3ccccc3)CC2)nc2sccn12 | i | 1 | 94
O=[N+]([O-])c1c(N2CCN(c3ncccn3)CC2)nc2sccn12 | i | 1.1 | 99
O=C1NC(=O)C2(CCN(C(=O)c3ccc4c(c3)S(=O)(=O)N=C3CCCCCN34)CC2)N1 | i | 0.94 | 93
COC(=O)C1=C(C)N(C2CC2)C(=O)NC1c1ccc([N+](=O)[O-])cc1 (centres undefined) | i | 0.93 | 93

Retrieved by structure from the list above (two):
SMILES | CFTR F508del | CFTR F508del fold 10 ug/mL | CFTR F508del viability 10 ug/mL | others
O=[N+]([O-])c1c(NC2CCN(Cc3ccccc3)CC2)nc2sccn12 | i | 1 | 94
Fc1ccccc1-n1cnn(CN2CCOCC2)c1=S | i | 0.91 | 96

Next section
SMILES | CFTR F508del | CFTR F508del fold 10 ug/mL | CFTR F508del viability 10 ug/mL | others
C=CCNC(N)=S | i | . | . | CFTR F508del fold 25 µM=1;CFTR F508del viability 25 µM=104
Oc1c(Cl)cc(Cl)c2cccnc12 | 2 | . | . | CFTR F508del fold 25 µM=1.2&1.8;CFTR F508del viability 25 µM=73&75
Oc1ccc(OCCN2CCOCC2)cc1 | i | 0.88 | 100
COc1ccccc1Nc1nc(N)nc(CSc2ccccn2)n1 | i | 0.92 | 115
O=S(=O)(c1c(Cl)cc(Br)cc1Cl)N(Cc1ccco1)C1CC1 | i | 1.1 | 82
O=S(=O)(c1ccc2c(c1)CCCC2)N1CCCC1c1ccncc1 (centres undefined) | i | 0.76 | 71
Cn1ccnc1SCc1ccc(C(=O)NC2CCCCCC2)o1 | i | 0.98 | 95
O=C1c2cccc3cccc(c23)N1CN1CCC(c2nc3ccccc3o2)CC1 | i | 0.92 | 81
Cc1noc(C)c1S(=O)(=O)N1CCN(Cc2noc(C(C)(C)C)n2)CC1 | i | 0.91 | 89
Cn1ccc(NC(=O)C2CC3C=CC2C3)n1 (centres undefined) | i | 1.1 | 97
COC(=O)c1cc(COC(=O)c2cc(C)sc2C)oc1C | i | 0.99 | 83
O=C(OC(C(=O)c1ccccc1)c1ccccc1)c1n[nH]c(=O)c2ccccc12 (centres undefined) | i | 1.2 | 103
C=CCNC(=O)Cc1c(C)noc1C | i | 1 | 99
O=C(NCCCN1C(=O)NC2(CCCC2)C1=O)NCc1ccc(F)cc1 | i | 0.99 | 98
O=C(Nc1cnccn1)C1CCN(Cn2nc3c(Cl)cc(Cl)cn3c2=S)CC1 | i | 0.94 | 97
O=C1C(=O)N(C2CCCC2)C(=O)N1CN1CCCN(S(=O)(=O)c2ccc(F)cc2)CC1 | i | 0.95 | 96
O=C(O)CCCN1CCCC1 | i | 1.1 | 98
COc1ccnc(N2CCN(CN3C(=O)NC4(CCC(C)CC4)C3=O)CC2)n1 (centres undefined) | i | 1 | 97
Cc1nc(NC(=O)c2cnccn2)sc1-c1nccn1C | i | 1 | 84
N#Cc1cn(C2CC2)c(=O)n(CCOc2ccc3ccccc3c2)c1=O | i | 0.96 | 89

24 entries already listed, arranged by formula weight, largest number first.
SMILES | CFTR F508del | CFTR F508del fold 10 ug/mL | CFTR F508del viability 10 ug/mL | others
O=C1C(=O)N(C2CCCC2)C(=O)N1CN1CCCN(S(=O)(=O)c2ccc(F)cc2)CC1 | i | 0.95 | 96
O=C(COC(=O)C1(c2ccc(F)cc2)CCCC1)N1c2ccccc2NC(=O)C12CCCC2 | i | 0.83 | 71
Cc1cc2oc(=O)cc(COC(=O)c3ccc(N4CCCC4)c([N+](=O)[O-])c3)c2cc1C(C)C | i | 1.1 | 113
COc1ccnc(N2CCN(CN3C(=O)NC4(CCC(C)CC4)C3=O)CC2)n1 (centres undefined) | i | 1 | 97
c1coc(CNc2nc(CN3CCOCC3)nc3sc4c(c23)CCCC4)c1 | i | 1 | 86
O=C1c2cccc3cccc(c23)N1CN1CCC(c2nc3ccccc3o2)CC1 | i | 0.92 | 81
Fc1ccc(-c2[nH]ncc2CNCC(C2CCOC2)N2CCOCC2)cc1 (centres undefined) | i | 0.91 | 95
O=C(NCCCN1C(=O)NC2(CCCC2)C1=O)N1CCc2ccccc2C1 | i | 0.95 | 96
CCC(C)(C)NS(=O)(=O)c1ccc(S(=O)(=O)N2CCCC2)cc1 | i | 0.99 | 95
O=[N+]([O-])c1c(NC2CCN(Cc3ccccc3)CC2)nc2sccn12 | i | 1 | 94
CC1CCCCC1NC(=O)CN1C(=O)CS/C1=C\C(=O)C(C)(C)C (centres undefined) | i | 0.9 | 91
O=S(=O)(c1ccc2c(c1)CCCC2)N1CCCC1c1ccncc1 (centres undefined) | i | 0.76 | 71
COc1ccc(-n2nnnc2SCc2cn3ccccc3n2)cc1 | i | 1 | 103
Cn1ccnc1SCc1ccc(C(=O)NC2CCCCCC2)o1 | i | 0.98 | 95
COC(=O)C1=C(C)N(C2CC2)C(=O)NC1c1ccc([N+](=O)[O-])cc1 (centres undefined) | i | 0.93 | 93
CCOC(=O)c1cn[nH]c1S(=O)(=O)N1CCCCCCC1 | i | 1 | 86
COC(=O)c1cc(COC(=O)c2cc(C)sc2C)oc1C | i | 0.99 | 83
Cc1nc(NC(=O)c2cnccn2)sc1-c1nccn1C | i | 1 | 84
CC1CCCN(S(=O)(=O)N2CCc3ccccc3C2)C1 (centres undefined) | i | 0.98 | 100
Clc1ccc(-c2csc(NC3CC3)n2)cc1Cl | i | 0.91 | 99
CN(C)CC/C=C1/c2ccccc2COc2ccccc21 | i | . | . | CFTR F508del fold 25 µM=1.1;CFTR F508del viability 25 µM=93
C=CCOC(=O)c1[nH]c(C)c(C(=O)OC)c1C | i | 0.87 | 86
Cn1ccc(NC(=O)C2CC3C=CC2C3)n1 (centres undefined) | i | 1.1 | 97
Oc1c(Cl)cc(Cl)c2cccnc12 | 2 | . | . | CFTR F508del fold 25 µM=1.2&1.8;CFTR F508del viability 25 µM=73&75

Further compounds.
SMILES | CFTR F508del | CFTR F508del fold 10 ug/mL | CFTR F508del viability 10 ug/mL | others
Cc1csc(C2C(=O)NC(SC(C)C(=O)NC3CCCCCC3)=C(C#N)C23CCCC3)n1 (centres undefined) | i | 0.9 | 89
CCN(CC)C(=O)N1CCC(C(=O)Nc2nncs2)CC1 | i | 1.1 | 104
Cc1c(C)c(C)c(S(=O)(=O)N(C)Cc2nnc3n2CCC3)c(C)c1C | i | 1.2 | 106
O=C(NC(C1CC1)C1CC1)C1COc2ccccc2O1 (centres undefined) | i | 0.98 | 99
Brc1cc2c(c(CSc3nc4ccccc4[nH]3)c1)OC(c1ccccc1)OC2 (centres undefined) | i | 1 | 91
Cc1cc(C(C)(C)C)ccc1Oc1ccc2nnnn2n1 | i | 1 | 71
Cc1cc(C(C)(C)C)cc(C)c1Cn1cnc2c1c(=O)n(C)c(=O)n2C | i | 0.98 | 71
CCOC(=O)NC(C(=O)NCc1cccs1)C(C)C (centres undefined) | i | 1.1 | 103
CCNC(=O)NC(=O)CN1CCN(CC(=O)NC(=O)NCC)C(C)C1 (centres undefined) | i | 1 | 105
COc1ccc(OC)c(S(=O)(=O)NC2CCOc3ccccc32)c1 (centres undefined) | i | 0.97 | 83
CN1[C@@H]2CC[C@H]1CC(OC(=O)c1c[nH]c3ccccc13)C2 (some centres undefined) | i | . | . | CFTR F508del fold 25 µM=1.1;CFTR F508del viability 25 µM=99
c1ccc2oc(NCC(C3CCOC3)N3CCOCC3)nc2c1 (centres undefined) | i | 1.1 | 104
CCOC(=O)c1c(C)oc2nc(CSc3nnnn3CC)nc(N)c12 | i | 0.94 | 92
Cc1noc(C)c1CCC(=O)N1Cc2ccccc2CC1C(N)=O (centres undefined) | i | 1.1 | 88
Cc1cnc2c(S(=O)(=O)N(C3CC3)C3CCc4ccccc43)cccc2c1 (centres undefined) | i | 0.81 | 75
CC(NS(=O)(=O)c1ccc2c(c1)CCC(=O)N2)C1CC2CCC1C2 (centres undefined) | i | 0.94 | 81
Cc1noc(C)c1S(=O)(=O)NC(c1ccc2c(c1)CCC2)c1cccs1 (centres undefined) | i | 0.99 | 90
Cn1c(SCC(O)COCc2ccc3c(c2)OCO3)nc2sc3c(c2c1=O)CCCC3 (centres undefined) | i | 0.88 | 85
OC1(CSc2nnc(Cc3ccccc3)n2-c2ccccc2)CCCCC1 | i | 0.89 | 99
CN1C[C@H](C(=O)N[C@]2(C)O[C@@]3(O)[C@@H]4CCCN4C(=O)[C@H](Cc4ccccc4)N3C2=O)C[C@@H]2c3cccc4[nH]cc(c34)C[C@H]21 | i | . | . | CFTR F508del fold 25 µM=1.2;CFTR F508del viability 25 µM=82
